Rce1 inh = blocks yeast Ras-converting enzyme | calls only | actives 0.27% (n = 290,000) | yeast membranes, quenched prenylated peptide cleavage fluorescence;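 active = fall in fluorescence gain of 50% or more versus controls, with final raw signal at or below 3038400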;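 also: plate controls were neutral control wells for no effect and wells lacking membranes for full effect; tested at 10 µM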
Target sequence (Q03530 whole entry, looked up): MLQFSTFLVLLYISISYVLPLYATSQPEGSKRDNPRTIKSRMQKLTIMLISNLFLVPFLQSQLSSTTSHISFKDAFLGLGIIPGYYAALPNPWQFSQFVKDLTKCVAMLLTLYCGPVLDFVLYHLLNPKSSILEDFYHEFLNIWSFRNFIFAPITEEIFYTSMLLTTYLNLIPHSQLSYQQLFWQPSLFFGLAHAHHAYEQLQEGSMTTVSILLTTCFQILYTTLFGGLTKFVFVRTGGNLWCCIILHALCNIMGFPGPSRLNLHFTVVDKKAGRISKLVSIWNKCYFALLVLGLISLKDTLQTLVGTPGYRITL
CSC inhib = blocks cancer stem cells; actives 1.1% (n = 300,000); cancer stem cell-like cells viability, luminescence; inhibition, % at 7.5 µM; AID 2717;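 active = mean at 75% or more and at least half the replicates too; tested in HMLE shEcad cells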;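 also: 0% = median of negative and 100% = median of positive control wells; the first replicate is given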
MT1-MMP act inh = blocks activation of human MT1-MMP; P50281; HT1080 RFP-PRO-GFP cells, GFP/RFP ratio fluorescence, overnight; percent of plate control window, DMSO zero; GFP/RFP ratio change, % at 20 µM; actives 0.061% (n = 360,000); AID 651647;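 active = GFP/RFP ratio change of at least 30% with cell ATP level not reduced by more than half and red fluorescence within 50% of control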; also: strong numbers were not always called active
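Assay system – RFP-PRO-GFP reporter HT1080 cells · Compound dosing – single dose of 20 µM compound, 1% DMSO final · Incubation – overnight compound exposure at 37 °C · Measure – GFP/RFP fluorescence ratio · Benchmarks – DMSO wells and RFP-L50D-GFP cells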
Yeast UUG start = modulators of start codon recognition fidelity in yeast; S. cerevisiae UUG-firefly luciferase reporter, luminescence/redox ratio; activity score, % at 18.7 µM; actives 0.13% (n = 350,000); AID 602363;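 active = replicate mean at a twofold rise or more, about +100% in these data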;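 also: firefly luciferase made from a UUG start codon reports start codon fidelity; reporter light over untreated wells divided by growth signal over untreated wells; some hits fall short of that in this replicate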
Env fusion inh = HIV envelope-mediated fusion inhibition. HeLa-JRFL Env/CEM21 cell fusion, luciferase. inhibition, % at 12.3 µM. actives 1.1% (n = 360,000);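 active = mean replicate inhibition score of at least 50 and every replicate individually at or above 50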;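 also: 0% = plate neutral controls and 100% = maraviroc near 300 nM; one replicate is shown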
eIF4H FP inh = inhibitors of RNA binding by human eIF4H | AID 2012 | inhibition, % at 35 µM | actives 0.94% (n = 290,000) | Q15056 | eIF4H fluorescence polarization binding assay;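 active = 50% or more with normal probe brightness, or confirmed in later tests; about a fifth of its hits are not listed in these tables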;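 also: calls also rest on retests at 20 µM and on dose response follow-up; 0% = protein and probe with vehicle and 100% = probe without protein; strong numbers were not always called active; many hits fall short of the cut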
PABP polyA inh = PABP-poly(A) binding inhibition; P11940; PABP-poly(A) RNA binding, fluorescence polarization; inhibition, % at 35 µM; actives 1% (n = 290,000);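 active = 50% or more with normal probe brightness, or confirmed in later tests; about a fifth of its hits are not listed in these tables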;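 also: calls also rest on retests at 20 µM and on dose response follow-up; controls were probe without protein and protein plus probe with vehicle; some compounds called inactive have numbers as strong as hits; many hits fall short of the cut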
Target sequence (P11940 whole entry, looked up): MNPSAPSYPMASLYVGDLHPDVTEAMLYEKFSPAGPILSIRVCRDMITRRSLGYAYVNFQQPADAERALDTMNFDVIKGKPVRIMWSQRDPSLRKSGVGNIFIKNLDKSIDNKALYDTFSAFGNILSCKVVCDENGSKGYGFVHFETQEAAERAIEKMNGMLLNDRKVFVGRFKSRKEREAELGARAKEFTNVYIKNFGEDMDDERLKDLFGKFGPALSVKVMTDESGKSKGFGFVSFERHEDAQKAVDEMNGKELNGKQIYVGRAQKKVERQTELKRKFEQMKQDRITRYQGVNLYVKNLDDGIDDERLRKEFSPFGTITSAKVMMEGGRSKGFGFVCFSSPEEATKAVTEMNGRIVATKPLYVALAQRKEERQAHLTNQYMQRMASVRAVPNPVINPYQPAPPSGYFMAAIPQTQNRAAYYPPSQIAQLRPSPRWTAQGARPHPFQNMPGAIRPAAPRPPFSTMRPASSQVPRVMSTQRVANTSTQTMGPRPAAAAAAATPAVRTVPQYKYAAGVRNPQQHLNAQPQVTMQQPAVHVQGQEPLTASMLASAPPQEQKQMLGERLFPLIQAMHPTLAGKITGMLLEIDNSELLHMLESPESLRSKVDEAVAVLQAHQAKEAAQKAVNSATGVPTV
MT1-MMP act inh RFP = second read-out of MT1-MMP act inh, no call of its own (marks repeat the call); RFP signal change, %; measured here: RFP expression control read;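 0 = vehicle wells; hits needed this value within 50% of zero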
Numbers without * were called inactive; i = inactive; . = no result given.

Values run as follows: Rce1 inh	CSC inhib	MT1-MMP act inh	MT1-MMP act inh RFP	Yeast UUG start	Env fusion inh	eIF4H FP inh	PABP polyA inh
> CCOC(=O)/C(C#N)=C/Nc1ccccc1OC
  i	2.1	-2.5	-4.0	-7.4	-355.7	0.0	-3.0
> Cc1ccc(C)c(N(C(=O)c2csnn2)C(C(=O)NC2CCCCC2)c2ccccn2)c1 (stereo unspecified)
  i	-12.1	-1.1	1.6	10.6	8.4	-3.0	-9.1
> CCOC(=O)c1csc(N)n1
  i	5.4	0.9	2.4	.	-4.7	0.7	-7.7
> COc1ccc(-c2csc(NC(=O)C3=NN(c4ccccc4)C(=O)CC3)n2)cc1
  i	27.8	-1.7	-18.8	.	30.4	-0.8	-12.7
> Cc1cc(NC(=O)COC(=O)C2CC(=O)N(c3ccc(Cl)cc3)C2)no1 (stereo unspecified)
  .	-12.0	-1.5	-3.1	-14.4	-29.6	-8.2	-0.8
> COC(=O)C(NC(C)=O)(Nc1ccc(Br)cn1)C(F)(F)F (stereo unspecified)
  i	-3.2	3.4	8.0	-4.0	.	0.3	0.6
> Nc1nc(NC(=O)c2cccc(S(=O)(=O)N3CCCCCC3)c2)nc(-c2ccccc2)n1
  i	-6.4	5.0	-1.5	-14.5	.	6.2	3.4
> COc1ccc(CNC(=O)C(=O)c2cn(CC(=O)N3CCOCC3)c3ccccc23)cc1
  i	-7.5	-1.1	-1.1	6.4	-6.9	-11.7	-1.9
> O=C(NCc1cc(Cl)cc(Cl)c1)c1ccc2nc(COCCO)[nH]c2c1
  .	.	5.6	-0.3	-3.3	-22.6	.	.
> COc1ccccc1NS(=O)(=O)c1cccc(C(=O)N2CCN(Cc3ccc4c(c3)OCO4)CC2)c1
  i	13.4	-2.9	-3.1	.	0.8	.	.
> COc1ccccc1OCCC(=O)N1CCN(c2ccccc2OC)CC1
  i	-10.9	2.4	7.5	3.0	0.8	-8.3	-7.0
> COc1ccc(CCNC(=O)C(=O)N2CCCC2)cc1OC
  i	2.4	-1.1	-2.7	.	-9.3	-5.7	-1.0
> Cc1csc2ncnc(NNC(=O)c3ccc(Cl)cc3)c12
  i	2.4	-4.2	-26.1	.	65.7*	6.9	9.9
> COc1ccc(C(=O)NC2c3ccccc3-c3ccccc32)cc1
  i	13.2	0.5	2.2	.	-0.3	5.0	-1.0
> C/C(=N/NC(N)=S)c1ccc(Br)s1
  i	-7.7	0.9	-7.1	.	28.9	-10.6	7.2
> Cc1ccc(C(=O)COC(=O)c2cccc(NC(=O)c3ccc([N+](=O)[O-])cc3[N+](=O)[O-])c2)cc1
  i	15.0	14.4	-7.5	-54.5	-241.8	-2.7	6.5
> Cc1cccc(-n2ccnc2SCC(=O)Nc2cc(C)on2)c1
  i	-8.6	0.5	-2.3	0.0	.	-6.6	-3.9
> COc1ccccc1/C=C/C(=O)c1cc(Br)ccc1OC(=O)c1ccco1
  i	3.4	-9.5	-13.2	-7.4	-132.9	.	.
> O=c1c(O[C@@H]2O[C@H](CO)[C@@H](O)[C@H](O)[C@H]2O)c(-c2ccc(O)c(O)c2)oc2cc(O)cc(O)c12
  i	.	.	.	.	.	2.0	1.1
> COc1ccc(NC(=O)CN(C)CC(=O)NCC2CCCCC2)cc1
  .	.	5.0	1.5	5.1	0.4	.	.
> Cc1ccc(C(=O)c2ccccc2C(=O)OCC(=O)N2CC(C)CC(C)C2)cc1 (stereo unspecified)
  .	.	-1.4	-1.5	-8.5	15.2	.	.
> O=C(NCCO)c1ccc2c3n(nc2c1)-c1ccccc1CO3
  i	-4.2	4.1	1.1	-15.7	-114.5	9.0	1.2
> COc1cccc(-c2cnc3c(NC=O)cc(-c4ccc(N(C)C)cc4)cn23)c1
  .	.	-105.4	-5.7	4.6	-33.6	.	.
> COc1ccc(NC(=O)COC(=O)CC23CC4CC(CC(C4)C2)C3)c([N+](=O)[O-])c1
  i	.	9.1	7.5	.	22.2	-3.4	6.9
> N#CC1=C(N)NC(SCC(=O)Nc2ccccc2)=C(C#N)C12CCCCC2
  i	4.8	-6.4	-6.2	-15.4	113.1*	-6.0	4.5
> CC1CN(C(=O)COc2ccc3ccccc3c2)CC(C)O1 (stereo unspecified)
  .	-2.2	5.5	-3.9	1.3	-10.3	.	.
> O=C(CSc1n[nH]c(=O)[nH]c1=O)N/N=C/C=C/c1ccccc1
  i	-6.2	3.2	-0.2	.	-11.3	4.2	-3.4
> Cc1ccccc1S(=O)(=O)NC(=O)C1(C)CCN1C(=O)C/C=C/c1ccccc1 (stereo unspecified)
  .	.	-1.7	2.7	-8.8	-6.7	.	.
> Cc1c(NC(=O)C(C)OC(=O)c2cccc(S(=O)(=O)N(C)C)c2)c(=O)n(-c2ccccc2)n1C (stereo unspecified)
  i	-2.2	1.9	6.8	18.7	-34.6	3.0	-6.1
> Cc1ccc(C(=O)N2CCN(c3cccc(Cl)c3)CC2)cc1C
  i	52.8	-2.0	1.3	0.3	.	-2.6	5.3

Values run as follows: Rce1 inh	CSC inhib	MT1-MMP act inh	MT1-MMP act inh RFP	Yeast UUG start	Env fusion inh	eIF4H FP inh	PABP polyA inh
> O=c1[nH]c(SCc2ccccc2)nc2c1cnn2-c1ccc(F)cc1
  i	-1.5	-0.7	0.5	-27.5	13.3	-10.3	-2.7
> COc1ccc(NC(=O)Cn2nnc(C(=O)Nc3ccccc3C)c2N)cc1
  i	-4.2	-0.8	-1.4	.	-11.7	15.5	2.2
> CCc1cccc(N(CC(=O)NC2CCCCC2)C(=O)c2csnn2)c1
  .	-10.1	-1.3	-5.5	-5.6	1.2	-12.2	0.3
> CCN1CNC(=S)N(C(C)c2ccccc2)C1 (stereo unspecified)
  i	-14.8	5.2	5.6	-18.4	.	3.4	-19.8
> O=C(Cn1c(CO)nc2ccccc21)NCCc1ccccc1
  i	-7.8	-5.0	-0.6	-5.7	7.2	1.3	15.0
> COc1ccc(-c2nc3c(c4nnc(SC(C)C(=O)Nc5ccc(C)cc5)n24)COC(C)(C)C3)cc1 (stereo unspecified)
  i	4.9	-0.5	-1.0	-13.3	4.5	-6.6	-4.4
> CCCOc1c(OC)cccc1C1CC(=O)Nc2cc3c(cc21)OCO3 (stereo unspecified)
  i	51.2	-4.6	-14.8	8.8	.	-12.6	-6.4
> CCOC(=O)C1CCN(C(=O)c2cccc(S(=O)(=O)N(C)C3CCCCC3)c2)CC1
  i	-5.0	6.1	-2.2	.	-0.1	.	.
> COC(=O)CS(=O)(=O)c1ccsc1C(=O)Nc1ccc(F)c(F)c1
  i	.	-4.2	-1.6	.	-0.4	-2.7	-10.0
> COc1ccc(N=C2SC(CC(=O)Nc3ccccc3F)C(=O)N2Cc2ccco2)cc1 (stereo unspecified)
  i	10.0	1.6	1.6	.	-3.0	-8.3	-1.3
> O=C1C2=C(SCCS2)C(=O)N1CCCO
  i	.	-5.5	2.0	-23.1	2.0	101.3*	110.7*
> Cc1cc(OCC(=O)N2CCC(C(=O)O)CC2)c2c(C)c(C)c(=O)oc2c1
  i	-10.0	3.0	2.8	-18.9	.	2.0	7.5
> COc1cccc(OC)c1OCCCCCCN1CCN(C)CC1
  i	27.9	2.5	3.8	-8.9	5.3	-1.0	11.1
> COc1ccc([C@@H]2[C@@H](C)N(c3ccccc3)c3ccccc3C(=O)N2Cc2ccccc2)cc1
  .	.	-9.0	-13.6	-4.7	-16.8	.	.
> CC1CCN(CCCNC(=O)c2cc3c(Cl)nc4ccccc4c3s2)CC1
  i	10.1	-2.1	-0.8	7.8	-66.2	-4.6	-7.6
> Cc1[nH]n(-c2ccccc2)c(=O)c1N=Nc1nccs1
  i	29.0	32.4*	-1.2*	-30.5	21.0	0.5	9.5
> CC(=O)N1CCN(Cc2cc(=O)oc3ccc4ccccc4c23)CC1
  .	.	-0.8	1.9	4.9	-8.4	.	.
> O=C(O)C1Nc2ccc(C(F)(F)F)cc2C2OCCC12 (stereo unspecified)
  i	-7.3	0.7	-2.1	-7.9	-54.1	.	.
> COc1ccc(NC(=O)CNS(=O)(=O)c2cccs2)cc1
  i	-9.3	1.4	5.4	-4.7	-29.6	-16.3	-1.0
> COCOCCn1cc(CN2CCS(=O)(=O)N(Cc3ccc(-c4ccccc4)cc3)C(CC(C)C)C2=O)nn1 (stereo unspecified)
  .	.	2.1	-1.2	-9.8	11.8	.	.
> C[C@@H]1C(=O)O[C@H]2[C@H](O)[C@@]34[C@H]5C[C@@H](C(C)(C)C)[C@]36[C@@H](OC(=O)[C@@H]6O)O[C@@]4(C(=O)O5)[C@@]12O
  i	-13.8	1.1	3.4	-13.9	-12.4	10.5	-3.6
> CNC(=O)CSc1nnc(-c2ccco2)n1-c1ccccc1
  i	-0.1	-1.8	0.2	-17.5	-4.0	-10.9	-3.0
> O=C(NC1CCN(S(=O)(=O)c2ccc(F)cc2)CC1)c1cccc(F)c1
  i	-0.8	-3.7	0.3	-19.8	1.3	7.8	5.0
> CC(Oc1ccc(Br)cc1)C(=O)NCC(c1ccco1)N1CCCCC1 (stereo unspecified)
  i	.	-2.3	3.3	-1.6	0.7	.	.
> CC(C)CC(C(=O)NC(=O)NCc1ccccc1)N1C(=O)c2ccccc2C1=O (stereo unspecified)
  i	-8.8	0.3	2.5	-5.6	.	-10.2	8.9
> CCCCC(=O)Nc1c(O)c2ccccc2[nH]c1=O
  .	-4.5	-3.1	2.6	-8.3	-20.8	4.9	-14.7
> O=C(CNS(=O)(=O)c1ccccc1)N1CCN(Cc2ccccc2)CC1
  i	-13.6	-2.8	1.5	-9.5	9.6	-6.4	9.2
> COc1cc(C(=O)Nc2ccc3c(c2)CCCN3C(=O)c2ccco2)c([N+](=O)[O-])cc1OC
  i	-4.0	1.8	-9.7	-1.8	-6.5	.	.
> COC(=O)CC/C(O)=C1/C(=N)CC(C)(C)CC1=O
  i	-11.1	-3.5	4.8	1.3	-6.9	18.3	6.9
> Cc1ccccc1CNC(=O)c1cc(COc2ccc(F)cc2F)on1
  i	3.3	-5.0	-4.7	.	3.0	-1.4	-1.1

Of the compounds above, 2 have a COOH group.
Values run as follows: Rce1 inh	CSC inhib	MT1-MMP act inh	MT1-MMP act inh RFP	Yeast UUG start	Env fusion inh	eIF4H FP inh	PABP polyA inh
> Cc1cc(OCC(=O)N2CCC(C(=O)O)CC2)c2c(C)c(C)c(=O)oc2c1
  i	-10.0	3.0	2.8	-18.9	.	2.0	7.5
> O=C(O)C1Nc2ccc(C(F)(F)F)cc2C2OCCC12 (stereo unspecified)
  i	-7.3	0.7	-2.1	-7.9	-54.1	.	.

Next section
Values run as follows: Rce1 inh	CSC inhib	MT1-MMP act inh	MT1-MMP act inh RFP	Yeast UUG start	Env fusion inh	eIF4H FP inh	PABP polyA inh
> CC(=O)Nc1cccc(-c2ccnc3c2CC(C(=O)Nc2ccc(C(C)C)cc2)O3)c1 (stereo unspecified)
  .	.	2.0	-5.6	-3.7	-18.5	.	.
> O=c1cc(O)c2ccccc2n1Cc1ccccc1
  i	2.1	1.1	0.8	-0.8	5.8	-1.8	4.8
> O=C(O)c1cncc(SCc2ccccc2)n1
  i	8.1	-3.9	-1.8	.	4.0	.	.
> COc1cc(OC)cc(C(=O)NNC(=O)CCC2CCCC2)c1
  .	-0.6	3.3	1.1	-7.9	.	.	.
> O=C(CC(c1ccccc1)c1ccco1)N1CCOCC1 (stereo unspecified)
  .	.	-1.2	2.8	-9.7	.	-4.0	-2.0
> COc1ccc(NC(=O)C2CCN(S(=O)(=O)c3c(C)noc3C)CC2)cc1
  i	-16.8	3.1	1.7	-12.3	6.9	-8.7	-1.9
> O=C(CSc1nnc(NC(=O)Cc2ccc(F)cc2)s1)NCc1ccco1
  i	-5.6	2.7	0.8	-16.7	18.6	-11.3	-0.1
> COc1ccc(C(c2oc(CO)cc(=O)c2O)c2oc(CO)cc(=O)c2O)cc1
  i	-6.6	1.4	2.0	.	4.7	1.1	-6.6
